Beta2AR agonist – human beta-2 adrenergic receptor agonism by FAP | response, % (test concentration not listed) | P07550 | Am2.2-beta2AR cells, FAP receptor internalization, flow cytometry; reference of the scale not given here | 340,000 compounds, 0.43% hits | AID 504454;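 active = response above a set limit, near 3 SD of response in nonfluorescent compounds, cut at about 42% in these data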;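 also: stock transfer was 100 nL into about 11 µL; a reference agonist was the positive control; negative values mostly stem from fluorescent compounds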
Target sequence (P07550 whole entry, looked up): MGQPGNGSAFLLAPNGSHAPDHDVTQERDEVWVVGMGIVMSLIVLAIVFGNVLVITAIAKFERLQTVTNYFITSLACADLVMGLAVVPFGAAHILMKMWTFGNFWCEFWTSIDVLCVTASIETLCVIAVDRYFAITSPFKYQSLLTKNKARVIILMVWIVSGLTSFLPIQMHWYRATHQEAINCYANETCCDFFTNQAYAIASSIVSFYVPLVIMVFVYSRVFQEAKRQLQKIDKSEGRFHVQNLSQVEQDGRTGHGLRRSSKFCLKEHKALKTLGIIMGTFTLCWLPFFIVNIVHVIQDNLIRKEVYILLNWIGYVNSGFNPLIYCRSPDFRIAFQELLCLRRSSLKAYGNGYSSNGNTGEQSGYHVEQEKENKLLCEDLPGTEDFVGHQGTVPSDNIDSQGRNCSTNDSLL
T cruzi inh – T. cruzi replication inhibition; T. cruzi beta-gal in NIH3T3, luminescence, 90 h; inhibition, % (test concentration not listed); 300,000 compounds, 1.4% hits;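 active = mean inhibition across valid replicates above about 55%, limit read from the data; inconclusive = mean below that limit but half or more replicates reach it; inactive = mean below it, under half of replicates reach it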;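 also: signal also drops with host cell toxicity which is not excluded here; 0% = plate median of DMSO wells and 100% = zero luminescence signal; higher percent means less beta-gal luminescence so fewer parasites; stock transfer was 50 nL into about 50 µL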
UCH37 inh – blocks the human deubiquitinase UCH37. Q9Y5K5. inhibition, % (concentration not given with the values). 330,000 compounds, 0.33% hits. purified proteasome/UCH37, Ub-AMC cleavage fluorescence;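 active = mean of two replicates above 20%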;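 also: 0% = compound-free wells with enzyme and 100% = wells lacking proteasome; stock transfer was 100 nL into about 20 µL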
Target sequence (Q9Y5K5 whole entry, looked up): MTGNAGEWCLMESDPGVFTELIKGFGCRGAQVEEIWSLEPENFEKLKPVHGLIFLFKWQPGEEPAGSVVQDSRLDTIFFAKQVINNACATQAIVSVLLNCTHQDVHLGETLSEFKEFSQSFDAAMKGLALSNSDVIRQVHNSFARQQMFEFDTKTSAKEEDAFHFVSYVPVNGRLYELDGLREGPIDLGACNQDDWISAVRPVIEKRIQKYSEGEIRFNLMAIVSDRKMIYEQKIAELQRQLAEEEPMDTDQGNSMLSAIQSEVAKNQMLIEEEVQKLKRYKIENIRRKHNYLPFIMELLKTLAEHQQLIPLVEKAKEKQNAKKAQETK
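assay system = human UCH37 enzyme supplied as purified proteasome complex | amount = proteasome at 0.15 nM in the dispensed enzyme solution | schedule = 30 min compound-proteasome preincubation then 25 min substrate reaction, room temperature | measured by = fluorescence, ex 355 nm, em 460 nm | benchmarks = no-proteasome wells (full inhibition) and compound-free wells (no inhibition)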
A1 inh – inhibitors of the anti-apoptotic protein A1, read as caspase activation. caspase activation, % (test concentration not listed). MEF A1-2A-BIM cells, Caspase-Glo 3/7 luminescence, 3 h; percent of clofoctol response, vehicle zero. 330,000 compounds, 0.066% hits. AID 2462;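 active = over half of replicate activation scores above 10%, or exactly half above 10 with the replicate mean above 10; inconclusive = replicate mean below 10 yet half the replicates above 10; inactive = over half of replicates below 10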;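 also: wells of about 30 µL received 50 nL stock; many hits fall short of the cut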
Calb FLC – affects C. albicans growth with fluconazole; growth inhibition, % (test concentration not listed); 300,000 compounds, 0.57% hits; C. albicans CaCi-2 (fluconazole-resistant clinical isolate) + fluconazole, Alamar Blue growth, 48 h;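 active = most replicates above 75%; inconclusive = exactly half above 75%; inactive = most below 75%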;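 also: all wells also contain fluconazole at 8 µg/ml as a sub-toxic cotreatment; 0% = median of DMSO wells and 100% = median of geldanamycin control wells; wells of about 8 µL received 7.5 nL stock; the first replicate is given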
RanGTP-Impb inh – disruptors of Ran-importin-beta complex formation – biochemical, FRET, CFP-Ran, YFP-importin-beta, homogeneous, primary screen | inhibition, % (no concentration beside the values) | AID 2216 | 300,000 compounds, 1.1% hits | cell-free CFP-Ran/YFP-importin-beta FRET ratio;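 active = most replicates above 15%; inconclusive = exactly half above 15%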;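 also: 0% = DMSO wells and 100% = Ran loaded with GDP instead of GTP; wells of about 40 µL received 100 nL stock; the first replicate is given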
Beta apoptosis – blocks beta cell apoptosis; INS-1E cytokine-induced death, ATP luminescence, 48 h; percent of positive-control rescue, neutral wells zero; protection from apoptosis, % (concentration not given with the values); 300,000 compounds, 0.8% hits; AID 435005;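 active = all replicates at 75% or more, or half of them and the mean; inconclusive = half reach 75% but not the mean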;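 also: 0% = cytokine-treated negative control wells and 100% = positive control rescue; higher means more ATP so stronger rescue from cytokine killing; wells of about 40 µL received 100 nL stock; the first replicate is given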
LANA-H2A inh – blocks KSHV LANA binding to histone H2A/H2B; Q9QR71; cell-free LANA-H2A/H2B peptide, fluorescence polarization; inhibition, % (test concentration not listed); 320,000 compounds, 0.6% hits; AID 2629; in the data active = inhibition mostly above about 10%, no sharp cut-off; inactive = mostly below about 6.7%;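 also: stock transfer was 7.5 nL into about 10 µL; 0% = median of vehicle wells and 100% = median of positive control wells; one replicate is shown; the record names a cut of 25% in any replicate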
Numbers without * were called inactive; ? = inconclusive; · = no result given; + = active, no number. Compounds were not picked by outcome; overall some 4.3% were active at least once.

SMILES	Beta2AR agonist	T cruzi inh	UCH37 inh	A1 inh	Calb FLC	RanGTP-Impb inh	Beta apoptosis	LANA-H2A inh
COc1ccc(N2CCN(CNC(=O)c3ccccc3)CC2)cc1	-5	-12	3.1	1.3	2	5.0	-5	-3.5
CCOc1ccc(S(=O)(=O)Nc2ccc(C(=O)NCC(C)(C)N3CCOCC3)cc2)cc1	-8	-2	2.3	-0.1	6	-2.8	2	1.8
COc1ccc(NC(=O)C2Cc3ccccc3O/C2=N\O)cc1 (stereo not given)	-6	-4	·	0.5	-4	1.2	2	2.2
CC(C)n1cc(CN2CCN(CCc3ccccc3)C(CCO)C2)cn1 (stereo not given)	0	13	2.1	-0.1	7	2.2	-8	4.0
COc1ccc(NC(=O)CSc2nnc(C)n2N)cc1S(=O)(=O)N1CCCCC1	-3	·	1.5	0.0	·	·	-7	0.1
O=C(NCC(=O)N(c1ccc(F)cc1)C(C(=O)NC1CCCC1)c1ccncc1)c1ccco1 (stereo not given)	-11	-14	-1.9	0.6	-6	-4.5	-4	3.0
O=C(O)/C=C/c1cnc2ccccc2n1	0	4	6.9	-0.2	0	-1.4	-9	-3.3
CCC(C)C(NC(N)=O)C(=O)Nc1ccc(S(=O)(=O)Nc2ccc(OC)cc2)cc1 (stereo not given)	-1	-7	-0.2	1.1	8	-4.3	·	2.4
CCCC(C)NS(=O)(=O)c1ccc(OC)c(C)c1 (stereo not given)	8	-3	2.7	-0.8	-4	-1.3	-4	-6.9
Cc1cccc(CNC(=O)CC2C(=O)NCCN2C2CCCC2)c1 (stereo not given)	7	18	·	0.6	0	2.0	-8	4.7
COc1ccccc1CCNC(=O)C1CCN(c2nnc(C)c3c(C)n(-c4ccc(C)cc4)nc23)CC1	31	25	-22	-4.6	28	0.4	33	2.5
CCC1(CC)C(=O)C2=C3C1[C@H](C(=O)OC)C=C(C(=O)OC)C[C@H]3n1c(=O)n(-c3ccccc3)c(=O)n1[C@H]2C (stereo not given in full)	2	8	2.5	-0.3	-3	2.1	1	4.7
COc1ccc(C2/C=C\CNCC(=O)N2Cc2ccc(F)cc2)cc1 (stereo not given)	5	-18	2.8	-0.1	-14	0.4	-10	9.9
O=C(N/N=C/c1ccc(OC2CSC2)cc1)c1ccc(CN2CCOCC2)cc1	-11	-8	·	0.3	34	-1.1	-1	2.0
CN1C(=S)SC(/[N+]([O-])=C\c2ccco2)C1(C)C (stereo not given)	-4	2	7.0	2.0	1	-0.2	-2	2.8
CCc1cccc(Nc2cc(C)nc3nc(C)nn23)c1	-12	-6	0.4	0.5	1	-1.3	1	-2.9
c1ccc(Cn2ncc3ccccc32)cc1	-10	-15	2.1	0.2	7	1.5	-16	-8.3
O=S(=O)(c1ccccc1)[C@@]1(c2ccc(Br)cc2)C[C@@H]2ON=C(c3ccccc3)[C@@H]2C1	-7	11	-1.3	0.1	-1	7.8	1	3.1
C/C(=N/NS(=O)(=O)c1cccc([N+](=O)[O-])c1)c1c[nH]c2ccccc12	1	-12	·	-0.1	1	1.9	1	2.5
CC(=O)N(Cc1ccc(F)cc1)c1cccc(C)c1C	-2	3	2.3	0.6	2	3.5	1	-1.7
O=C(Nc1ccccc1N1CCCCC1)c1ncoc1-c1cccc(F)c1	-18	14	0.6	0.6	-3	2.4	4	-10
COc1cc(C(=O)OCc2cc3ccccc3[nH]c2=O)cc(OC)c1OC	0	-9	1.9	1.5	·	2.5	-6	2.9
O=C(CNC(=O)c1nc[nH]c1C(=O)NCc1ccccc1)OCc1ccccc1	7	-17	4.1	1.8	-6	-1.5	-4	-2.9
CN1C(=O)c2ccccc2C(C(=O)NCC2CCCO2)C1c1c[nH]c2ccccc12 (stereo not given)	-2	1	2.6	0.5	1	-0.3	·	1.6

The list goes on (2 carried over from the part before).
SMILES	Beta2AR agonist	T cruzi inh	UCH37 inh	A1 inh	Calb FLC	RanGTP-Impb inh	Beta apoptosis	LANA-H2A inh
O=C(CNC(=O)c1nc[nH]c1C(=O)NCc1ccccc1)OCc1ccccc1	7	-17	4.1	1.8	-6	-1.5	-4	-2.9
CN1C(=O)c2ccccc2C(C(=O)NCC2CCCO2)C1c1c[nH]c2ccccc12 (stereo not given)	-2	1	2.6	0.5	1	-0.3	·	1.6
CCC(=O)NNc1nc2c(Cl)cccc2s1	6	-10	0.8	0.7	13	2.7	-3	-6.1
Cc1noc(NC(=O)c2c(-c3c(Cl)cccc3Cl)noc2C)c1[N+](=O)[O-]	-4	-32	8.5	-0.2	-1	5.1	14	2.0
CCCCc1nnc(NC(=O)C2CC(=O)N(Cc3ccccc3)C2)s1 (stereo not given)	-7	10	4.1	0.2	-1	-0.7	-7	2.8
Nc1cccc(-c2nc3ccccc3s2)c1	·	3	-76	-8.9	-1	-2.1	-3	2.9
Cc1ccc(OCC(=O)NCC2CCCO2)c(C)c1 (stereo not given)	8	-4	-1.0	-0.8	-13	4.8	-13	7.3
Cc1ccc(Cn2ncc3c(NCCN(C)C)ncnc32)cc1	-7	0	3.1	0.2	-11	0.3	-3	7.6
Cc1nc(NC(=S)NC(=O)c2ccccc2)sc1C(=O)N(C)C	0	3	12	0.8	-29	-1.3	-3	-4.4
COC(=O)c1ccc(NC(=S)N2CCN(CCO)CC2)cc1	-3	-13	-0.1	-0.2	7	3.9	-3	-0.7
CC(C)n1ncc2c(C(=O)Nc3ccc(S(N)(=O)=O)cc3)cc(C3CC3)nc21	24	·	-12	-0.4	·	·	1	8.2
Cc1ccc(CCNC(=O)C2CCN(S(=O)(=O)c3ccc4c(c3)CCC(=O)N4)CC2)cc1	3	-14	3.7	0.6	-1	-1.3	·	0.1
CCOc1ccccc1NS(=O)(=O)c1cn(C)nc1C	5	2	-0.3	-0.5	7	-1.3	-6	-0.2
CCOC(=O)c1cnc2cc(-c3ccc(C(C)(C)C)cc3)nn2c1N	-17	19	0.7	-0.9	1	4.0	5	3.8
O=C1CCN(C(=O)c2ccccc2)C2CCCCC12 (stereo not given)	-4	0	6.1	0.5	-26	2.4	-1	-9.2
O=C(CCc1nnc2ccc(NCc3ccco3)nn12)N1CCN(c2ccc(F)cc2)CC1	25	-9	0.1	1.8	-4	1.1	0	6.0
CCOc1ccc2[nH]c(=O)c(CN(Cc3cccs3)C(CC)c3nnnn3C(C)(C)CC)cc2c1 (stereo not given)	-9	47	-14	·	12	-2.3	·	·
Nc1ccc(C(=O)Nc2cccc(N)c2)cc1	1	-12	2.7	-3.0	-11	-4.0	4	-0.1
CCOC(=O)N1CCN(c2nc(-c3cccc(OC)c3)cc(C(F)(F)F)n2)CC1	4	36	-17	-1.7	17	-1.4	16	3.8
O=C(CC1C(=O)NCCN1Cc1ccc(F)cc1)NCCCn1cccn1 (stereo not given)	-5	-16	-4.3	0.0	-12	-2.3	-1	2.9
Clc1ccccc1Nc1c2c(nc3ncnn13)CCC2	6	-5	1.8	0.9	?	6.1	6	-4.3
CCOC(=O)Cc1csc(NC(=O)CSc2nccn2C)n1	12	0	-1.3	0.8	13	3.8	-6	5.5
CCOC(=O)c1cc(-c2nnc(-c3cc(OC)c(OC)c(OC)c3)o2)c(C)nc1C	6	·	-102	-0.6	7	·	·	-4.0
CCCN(CCC)C(=O)CSc1nc2ccccc2c(=O)n1CC1COc2ccccc2O1 (stereo not given)	25	44	1.9	0.3	15	-2.2	4	0.6
COc1ccccc1Nc1ccc(C(=O)O)cc1[N+](=O)[O-]	13	-3	7.9	0.3	3	0.9	13	5.2
CCN(CC)c1ccc(S(=O)(=O)N2CCOCC2)cc1NC(=O)CN1CCc2ccccc2C1	5	42	1.1	-1.0	14	0.4	25	33*
Cc1ccc2[nH]c(=O)c(CNS(=O)(=O)c3ccccc3)c(-c3ccccc3)c2c1	12	7	0.7	0.2	?	-6.3	1	-2.3
CCOC(=O)C1(Cc2cccc(F)c2)CCN(CC2CC2)CC1	17	6	5.3	-0.1	-32	-2.7	·	-7.3
COc1ccccc1N1CCN(C(=O)c2c(-c3ccccc3Cl)noc2C)CC1	1	28	3.9	0.3	0	2.1	0	-6.9
Cc1cc(C)c2cc(CN(CCO)C(=O)NC3CCCCC3)c(=O)[nH]c2c1	-12	-11	-7.3	-0.2	1	2.1	8	-5.9
C=C(C)C(=O)NNc1ccccc1	-1	1	1.1	0.0	-29	1.9	·	-1.4
CCCOc1ccc(N2C(=O)CC(N(CCc3ccc(OC)cc3)C(=O)c3ccccc3)C2=O)cc1 (stereo not given)	-9	22	3.4	0.2	-2	-1.2	5	10
COc1ccc(OC)c(C2=NS(=O)(=O)N(C)C(C(=O)NCc3cccs3)=C2)c1	-10	14	-0.4	0.0	-7	-3.9	-3	-0.4
COc1ccccc1C(C)NC(=O)C1CCN(S(=O)(=O)c2cccs2)CC1 (stereo not given)	-3	·	3.5	0.0	·	·	-1	+
COc1ccc(OC)c(C(=O)c2ccc(C(=O)c3cc(OC)ccc3OC)cc2)c1	0	25	2.8	0.3	-1	1.9	9	-1.1
Cc1cc(C)c(NC(=O)CSc2nc(=O)n(CCN3CCOCC3)c3c2CCCC3)c(C)c1	1	-1	1.4	0.5	5	0.9	·	2.9
O=C(NCCCc1nc2ccccc2[nH]1)c1ccco1	9	-19	0.5	-0.2	4	0.5	-5	-1.8
COc1ccc(NC(=O)C2CC(c3c(F)cccc3Cl)=NO2)cc1OC (stereo not given)	-2	-12	4.3	0.2	9	3.9	8	-0.1
Cc1cc(C)nc(NS(=O)(=O)c2ccc(NC(=O)CCN3C(=O)c4ccccc4C3=O)cc2)n1	-3	-19	2.9	-0.6	0	-3.0	-4	-1.8
Cc1ccc(OCC(=O)NNC(=O)CCc2ccccc2)cc1	8	-7	0.2	-0.1	-3	0.2	-3	-2.2
CCc1nc2ccccc2[nH]1	-4	-5	2.3	0.3	4	-2.2	-13	-0.3
COc1ccc(-n2c(=O)[nH]cc(C(=O)Nc3ccc4c(c3)OCCO4)c2=O)cc1	-3	4	3.7	-0.4	-13	-6.6	0	4.2
CC1=C(C)C(=O)N(c2ccccn2)C1=O	4	-6	1.9	-0.1	1	-0.1	-8	-1.0
Cc1cc([N+](=O)[O-])ccc1NC(=O)c1ccc(NC(=O)C(C)C)cc1	1	6	3.8	-0.1	-5	-5.2	-7	2.8
CC(C)=N/N=C(\c1cccc([N+](=O)[O-])c1)C12CN3CN(CN(C3)C1)C2	-1	-7	·	2.1	20	11	-1	0.3
CCOC(=O)Nc1ccc2c(CN3CCN(S(=O)(=O)c4ccc(C(C)C)cc4)CC3)cc(=O)oc2c1	-7	·	-3.4	0.9	·	·	6	0.3
Cc1c(-c2ccc(Br)cc2)[n+](=O)c2c(n1[O-])CCCC2	-5	-8	4.1	0.5	-5	3.4	-6	-2.0
COc1ccc(C(=O)NC(C(=O)NCC2CCCO2)C(C)C)cc1 (stereo not given)	-4	-7	-0.1	0.1	-5	3.4	2	3.8
Cc1ccc(SC(C)C(=O)Nc2ccccc2C(=O)N2CCOCC2)cc1 (stereo not given)	-2	6	1.0	0.0	5	2.7	-1	1.2

Bioassay records as filed in PubChem.
